Assay outcomes (PubChem)
PrP 5UTR inh: inhibition of PrP 5' UTR reporter expression; hit rate 0.35% among 340,000; cell-based PrP 5' UTR mRNA reporter, plate reader; inhibition, % (concentration not given with the values);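 active = every replicate at 50% or more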;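 also: 0 = median of the neutral control wells; tested in H4 reporter cells; numbers are from one replicate; inactives centre near -14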
BJeLR viability: MLPCN primary cell-based screen for lethality selective to Ras in HRASV12 cells | inhibition, % (concentration not given with the values) | BJeLR (HRASV12) viability, CellTiter-Glo ATP luminescence, 48 h; reference of the scale not given here | hit rate 0.17% among 300,000;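 active = replicate mean above 50%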;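 also: 50 nL library stock added to about 25 µL; numbers are from one replicate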
Sa RN4220 lethal: growth inhibition of S. aureus RN4220, primary screen, OD600; 16 h; inhibition, % (test concentration not listed); hit rate 0.33% among 330,000; AID 1259311, 2017;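 active = z-score of -3 or lower and OD600 up to 0.18 on both plates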;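 also: plate controls were untreated cells for no effect and reference antibiotic for full effect; stock transfer was 100 nL into about 80 µL; one replicate is shown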
Mtb hypoxia rep: PubChem AID 1159583 | M. tuberculosis hypoxia-regulated fluorescent reporter, fluorescence | hit rate 0.1% among 300,000 | fluorescence inhibition, % (test concentration not listed);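 active = 35 to 45% if threefold the growth effect, above 45% if 1.5-fold the growth effect; inactive = the rest, general growth blockers included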;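 also: wells of about 50 µL received 100 nL stock; 0% = vehicle wells and 100% = reference inhibitor wells; whole bacteria with a GFP reporter of the hypoxia response; strong numbers were not always called active; many hits fall short of the cut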
Bead autofluor: flagged as autofluorescent in microsphere protease counterscreen; fluorescence intensity (test concentration not listed); AID 624483; compound autofluorescence counterscreen, microsphere flow cytometry; stronger effect = higher value; hit rate 3.1% among 360,000;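 active = at least 3 SD above the mean of all compounds, about 16000 in these data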;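 also: 100 nL of 1 mM stock went into each well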
ugtP null kill: growth inhibition of ugtP-null S. aureus, primary screen, RN4220 ugtP deletion, OD600; 16 h; some inactives read as strong as hits; growth inhibition, % (no concentration beside the values); hit rate 0.54% among 330,000; AID 1259309, 2017;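 active = z-score under -3 and OD600 up to 0.15 on both plates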;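 also: plate controls were untreated wells for no effect and antibiotic for full effect; wells of about 80 µL received 100 nL stock; the first replicate is given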
Mtb hypoxia rep growth: further read-out of Mtb hypoxia rep, marked with its call; growth inhibition, %; measured here: M. tuberculosis growth (absorbance);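 0% = vehicle and 100% = reference antibiotic; read after six days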
* hit, by the source's call; . = no result given; & = joins results of further samples. This is a random part of the collection, and some 4% of all compounds hit somewhere here.

Each structure is followed by: PrP 5UTR inh	Mtb hypoxia rep	BJeLR viability	ugtP null kill	Sa RN4220 lethal	Bead autofluor	Mtb hypoxia rep growth
COC(=O)C1=C(C)NC(C)=C(C(=O)OC)C1C(=O)OC1CCCCC1=O (configuration not stated)
    -16&-8	5&16	3	0&1	1.6&2.2	3617&4902	-6&5
CCCC12CN3CC(C)(CN(C1)C3c1ccc3c(c1)OCO3)C2=O (configuration not stated)
    -33	4	0	-1	4.1	2985	6
O=C(Nc1nnc(S(=O)(=O)N2CCOCC2)s1)c1ccccc1Br
    -13	2	-3	-5	-5.4	5638	6
COC1=C(Nc2ccccc2)C(=O)c2ccccc2C1=O
    -43	-2	2	60	74	2047	-5
Cc1cccc(CC2CC(=O)N(C3CCCCC3)C2=O)c1 (configuration not stated)
    -18	0	6	4	2.8	11062	12
O=C(Nc1nc(-c2ccc(-c3ccccc3)cc2)cs1)c1cnccn1
    -43	9	-1	-12	-5.1	2877	2
C/C(Cn1nnc2ccccc21)=N/OC(=O)c1c(F)cccc1F
    -15	.	-1	.	.	3512	.
C=C(C)C1CC=C(C)C(=NNC(=O)c2cccs2)C1 (configuration not stated)
    .	-11	.	-11	0.4	.	-2
CC1CCCC(NC(=O)c2cccc(S(=O)(=O)NCc3ccccc3)c2)C1C (configuration not stated)
    -19	8	.	-3	1.7	3846	7
O=[N+]([O-])c1ccc(NCCNS(=O)(=O)c2ccccc2)cc1
    -27	8	6	-2	3.1	4920	2
Cc1ccc(S(=O)(=O)CC(=O)N2CC(C)OC(C)C2)cc1 (configuration not stated)
    -23	2	8	-1	1.0	5605	-6
COc1ccc(S(=O)(=O)Nc2ccc(S(=O)(=O)N3CCCC3)cc2)cc1
    -16	8	5	2	4.1	7381	2
CC(c1ccccc1)C1OCC(C[N+]2(C)CCCCC2)O1 (configuration not stated)
    -46	7	4	2	0.4	4296	8
NC(=O)NC(CC(=O)NCCc1ccc(S(N)(=O)=O)cc1)c1ccc(Cl)cc1 (configuration not stated)
    -12	12	-6	-2	5.6	5032	2
CCN(CC)S(=O)(=O)c1ccc(NN)nc1
    -22	-3	2	12	3.6	4602	6
CCOC(=O)N1CCC(N2C(=O)c3cc(C(=O)NC4CCCCC4)ccc3C2O)CC1 (configuration not stated)
    16	.	0	11	5.2	5314	.
CNCc1ccccc1OCc1ccccc1F
    -18	-4	2	3	9.2	4350	4
Cc1cc(C)c(S(=O)(=O)c2ccccc2)c(OC(=O)c2c(Cl)cc(Cl)cc2Cl)n1
    3	15	5	5	-1.7	.	2
O=C(CON=Cc1ccccc1OC(F)F)NC1CCCC1
    .	1	.	3	5.0	.	-3
CCN(CC)C(=O)C1CCCN(Cc2ccc(OC)c(C)c2C)C1 (configuration not stated)
    -22	2	2	-8	-1.1	21287*	16
CN(Cc1nc(-c2ccncc2)no1)S(=O)(=O)c1ccc(Br)cc1
    -14	16	3	-1	-15	2858	-14
CCN(CC)C(=O)Oc1ccc(OC(=O)N(CC)CC)cc1
    -17	15	2	12	0.8	3304	5
Cc1ccc(-n2ncc3c(=O)n(CC(=O)NCC4CCCO4)cnc32)cc1 (configuration not stated)
    -25	5	.	-7	-13	3424	11
C#CCn1c(O)c(N=NC(=O)CNC(=O)c2cccnc2)c2ccccc21
    -30	0	3	3	2.3	4643	2
Cc1ccc(-n2c(N)c(C(N)=O)sc2=S)cc1
    -5	.	6	7	4.5	2211	.
CCNc1nc2nc3ccc(C)cn3c(=O)c2cc1C(=O)NCC1CCCO1 (configuration not stated)
    -19	13	-3	9	3.5	4298	12
CC(=O)c1ccc(Nc2nc(-c3cccnc3)cs2)cc1
    -51	-8	1	2	1.1	4169	2
CC1CCN(C(=O)CCC(=O)Nc2nnc(C(F)(F)F)s2)CC1
    -20	2	1	9	6.2	5489	-2
COc1ccc(C(=O)NCc2nnc(SCC(=O)NCc3ccco3)o2)cc1OC
    -2	6	-1	4	2.4	6158	-3
Cc1ccc(S(=O)(=O)Nc2cc(C(F)(F)F)ccc2N2CCOCC2)cc1
    -6	4	-4	-4	11	2578	1
COc1ccc(CNCCC(c2ccccc2)c2ccc3c(c2)OCO3)cc1 (configuration not stated)
    30	-4	1	-36	4.8	11146	8
Cc1ccc(C=NNC(=O)CNC(=O)COc2ccc(Cl)cc2)o1
    .	1	.	6	3.0	.	-2
CCOC(=O)CC(=O)CSc1nc(C)cc(C)c1C#N
    -13	-8	2	16	0.3	3716	-1
CCCCOCCCNC(=O)N[C@@H](CC(C)C)C(=O)O
    -15	9	6	1	6.4	10676	4
O=C(OCc1ccccc1)N(CCF)c1cn(Cc2ccccc2)c(=O)n(Cc2ccccc2)c1=O
    -13	13	.	14	1.7	2892	5
COc1cccc(CN2CCCN(S(=O)(=O)c3ccc(Br)cc3)CC2)c1
    -15	.	-7	-6	-1.4	3742	.
O=C(Nc1ccc2nc(-c3ccc(Br)o3)[nH]c2c1)c1cccs1
    -13	.	3	1	-3.7	2595	.
Cn1nnnc1SCC(=O)Nc1nn(-c2ccccc2)nc1C(N)=O
    -3	.	4	.	.	4270	.
O=C(NN=Cc1ccncc1)c1cccc([N+](=O)[O-])c1
    .	-3	.	5	1.5	.	6
Cc1c(-n2c(SC(C)C(=O)NC(N)=O)nc3ccccc3c2=O)c(=O)n(-c2ccccc2)n1C (configuration not stated)
    -15	-3	18	4	2.7	3378	0
CCn1c(CSc2nc3ccccc3s2)nnc1SCC(=O)NCC(=O)OC
    -19	2	-5	2	1.0	20468*	2
COc1ccc(/C=C/C(=O)OCC(=O)Nc2cccc(C(C)=O)c2)cc1
    -9	8	6	9	2.1	2607	8
CN(C(=O)COC(=O)c1cccnc1Cl)C1CCCCC1
    -27	0	.	1	2.5	3568	2
Cc1nnc(N2CCCC(C(=O)Nc3cc(F)ccc3F)C2)c2nn(-c3ccccc3)c(C)c12 (configuration not stated)
    -34	4	-7	-3	3.2	7361	7
CCOc1ccc(C(=O)N[C@H](C(=O)Nc2cccc(S(=O)(=O)N3CCOCC3)c2)C(C)C)cc1
    -58	-2	.	0	1.5	5211	-4
CN(C)/C=C(\C#N)S(=O)(=O)c1ccccc1
    -20	3	5	9	8.5	3581	6
COc1ccc(-c2[nH]ncc2-c2csc(C)n2)c(O)c1
    -12	12	-10	-1	2.0	2158	13
O=C(CNCC1CCCO1)N1CCN(S(=O)(=O)c2ccc3ccccc3c2)CC1 (configuration not stated)
    -11	.	20	4	3.5	3560	.
CCc1ccc(C=C2SC(=S)N(CCC(=O)NC3=NCCS3)C2=O)cc1
    .	-9	.	-6	11	.	-4
Cc1ccc(CNC(=O)c2cccc3c2C(=O)c2ccc(N4CCC(C)CC4)cc2S3(=O)=O)cc1
    -11	-1	.	16	5.0	3318	4
c1ccc(CC2CCN(c3nc4ccccc4n4cnnc34)CC2)cc1
    -28	.	-6	-22	2.9	2994	.
COc1cc(C(=O)OCc2cccc(OC)c2OC)ccc1OCC(=O)N1CCOCC1
    -6	5	.	10	5.8	6336	1
COc1cc(NC(=O)CCCC(=O)OCC(F)(F)C(F)F)nc(OC)n1
    -11	0	0	5	4.4	10138	-3
COc1ccc(CNCC(O)COc2cccc3c2OC(C)(C)C3)cc1 (configuration not stated)
    6	-2	10	2	0.3	4777	15
Cc1onc(-c2c(Cl)cccc2Cl)c1C(=O)N=S(C)(=O)c1ccccc1 (configuration not stated)
    -37	6	-13	4	5.0	3280	12
CC1CCCCN1S(=O)(=O)c1coc(C(N)=O)c1 (configuration not stated)
    -11	.	-5	4	5.2	4928	.
CCOc1ccc(/C=C(\C#N)C(=O)c2c(C)[nH]c3ccccc23)cc1OC
    -36	6	6	1	2.9	7119	1
C=CCn1c(O)c(C(CC)=Nc2cc(OC)ccc2OC)c(=O)[nH]c1=O
    -24	-5	5	25	-5.0	10010	10
CCc1nn(C)c(N)c1C
    -3	10	6	2	3.3	4309	1
O=[N+]([O-])c1ccccc1OCCNCc1ccccc1
    -32	7	10	8	5.6	3742	14

The listing continues:
Each structure is followed by: PrP 5UTR inh	Mtb hypoxia rep	BJeLR viability	ugtP null kill	Sa RN4220 lethal	Bead autofluor	Mtb hypoxia rep growth
COC(=O)C1=C(C)NC(C)=C(C(=O)OC)C1c1cc2ccc(C)cc2[nH]c1=O
    -15	-7	5	-2	0.2	10513	3
Nc1nnn(CC(=O)N/N=C/c2ccco2)n1
    -29	.	-2	.	.	4481	.
CCOC(=O)c1ccc(NC(=O)CSc2nnc(C)n2-c2ccccc2)cc1
    -11	.	-5	-1	-0.8	4480	.
Cc1cc(-c2ccccc2)nc(Nc2nc3c(C)cccc3c(=O)[nH]2)n1
    -41	16	.	2	21	5424	2
COc1ccc(NC(=O)NCCN2CCN(c3cc(OC)ccc3OC)CC2)cc1
    -74	19	6	3	5.5	3686	7
Cc1ccc(-n2ncc3c2CCCC3NC(=O)CCN2CCCC2=O)cc1C (configuration not stated)
    2	7	9	1	3.0	5835	8
O=C1CCN(C(=O)Nc2ccccc2)N1
    -7	-5	6	-2	6.0	6193	10
NC(=O)CC(NC(=O)c1ccc(Br)cc1)c1ccc(N2CCN(c3ccccn3)CC2)c([N+](=O)[O-])c1 (configuration not stated)
    -23	0	2	13	3.9	3894	7
CCn1cc(CN2CCC(n3nccc3NC(=O)C3CCCC3)CC2)cn1
    -3	7	-7	2	5.0	6301	4
Cc1noc(/C=C/N(C)C)c1S(=O)(=O)N1CCCC(C(=O)NCc2ccco2)C1 (configuration not stated)
    -37	3	6	-3	-7.0	6270	9
CC1Cc2cc(/C=C3/SC(=S)N(C)C3=O)ccc2O1 (configuration not stated)
    .	2	-2	0	1.1	5853	5
N#Cc1cc(-c2ccccc2)oc1/N=C/c1ccccc1O
    -28	.	-2	.	.	10332	.
CCOc1ccc(NC(=O)CCN2CCN(c3ccccc3)CC2)cc1
    -3	6	-1	-6	2.8	8439	14
S=c1[nH]nc(-c2ccccc2Cl)n1CC1CCCO1 (configuration not stated)
    -16	5	-4	-1	2.7	3330	12
COc1ccc(-c2nc(N)nc(C)c2-c2ccc(Cl)cc2)c(O)c1
    -9	-16	6	-3	-3.3	3981	8
CCN(C[C@H]1N[C@@](CC)(C(=O)OC)[C@H]2C(=O)N(Cc3ccccc3)C(=O)[C@@H]12)C(=O)Nc1ccc(OC)cc1
    -5	-6	.	-6	-6.3	3108	-6
CCOC(=O)CSc1ncnc2c1cnn2-c1ccccc1
    8	-1	-11	13	3.1	8964	9
CC1CCCC(C)N1C(=O)Cn1c(SCC(=O)Nc2ccc3c(c2)OCO3)nc2ccccc21 (configuration not stated)
    7	5	-7	-4	4.3	9177	0
COC(=O)C1=C(C(=O)OC)C2N(C)c3ccc(OC)cc3[C@@]23CC(C(=O)OC)N(C(=O)NCCBr)C3=N1 (some centres not stated)
    .	1	.	1	4.7	.	16
O=C(NCC1CCCO1)c1ccc2c(=O)n(CC3CCCO3)c(SCC(=O)N3CCCC3)nc2c1 (configuration not stated)
    -5	5	0	1	8.8	4348	4
CCOC(=O)N1CCN(C(=O)CN(C2CCCCC2)S(=O)(=O)c2ccc(Cl)cc2)CC1
    5	-1	3	3	3.1	22589*	12
O=C1Nc2ccccc2C1=NN=CC1=C(N2CCOCC2)/C(=C\c2ccccc2)CC1
    .	.	.	-27	1.8	.	.
C=CCn1c(-c2ccncc2)n[nH]c1=S
    -19	-18	4	1	3.6	3510	-5
O=C(c1ccc2c(c1)OCO2)N(CC1CCCO1)C1(C(=O)NC2CCCCC2)CCCCC1 (configuration not stated)
    -20	12	-9	-2	4.0	9483	17
CCN(CC(=O)Nc1ccccc1OC)C(=O)CSCC(=O)Nc1cccc(C)c1
    -25	-6	.	7	1.6	5061	-2
O=C(CN1CCOCC1)NCCNC(=O)CN1CCOCC1
    -25	-2	-11	-2	0.3	9419	2
CCOc1ccc(C(=O)Nc2cccc(-c3cc4ccccc4oc3=O)c2)cc1[N+](=O)[O-]
    3	.	-1	1	3.0	3601	.
COc1cc(OC)cc(C(=O)Nc2ccc3nc4n(c(=O)c3c2)CCCC4)c1
    -23	5	8	-3	2.5	3732	-4
